High-throughput results deposited in PubChem by National Center for Advancing Translational Sciences (NCATS).
Cruzain noTriton – qHTS Assay for Promiscuous and Specific Inhibitors of Cruzain (without detergent) | purified cruzain, Z-FR-AMC fluorescence, no detergent | Potency, µM, without a hit: max response, negative = inhibition, hits mostly inhibitors | 2.3% of 200,000 active | AID 1476, 2009;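 also: plate controls were enzyme without inhibitor for no effect and buffer without enzyme for full effect; nearly all actives have a fitted effect of over 40% in size; top concentration of the series not given in the record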
Target sequence (P25779 123-467 limits assumed): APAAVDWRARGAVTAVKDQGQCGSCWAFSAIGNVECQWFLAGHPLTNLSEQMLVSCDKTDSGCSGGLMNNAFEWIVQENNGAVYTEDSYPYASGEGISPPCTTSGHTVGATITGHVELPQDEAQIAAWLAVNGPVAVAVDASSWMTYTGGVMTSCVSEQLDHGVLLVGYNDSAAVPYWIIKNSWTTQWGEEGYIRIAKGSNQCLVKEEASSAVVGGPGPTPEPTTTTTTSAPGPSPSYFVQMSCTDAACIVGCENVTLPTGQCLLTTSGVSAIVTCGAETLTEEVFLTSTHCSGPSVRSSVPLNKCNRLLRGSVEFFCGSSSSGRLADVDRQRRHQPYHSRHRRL
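Detergent-free condition (0.00005% Triton X-100) in acetate buffer pH 5.5 with DTT. 1.5 nM enzyme and compound were pre-mixed 15 min, then 2 uM Z-FR-AMC substrate added; reaction progress from fluorescence change between first and third reads (60 s).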
StopGo reporter – High Throughput Screening for Foot and Mouth Disease Virus Antivirals. human cells with a luciferase reporter of 2A StopGo recoding; control for the full effect not named in the record. Potency, µM (doses to about 57.9 µM), for the others: top-dose signal change, negative = less light. 1.2% of 410,000 active. AID 1159524, 2015; active = well fitted falling curve with a large enough effect; inconclusive = small, poorly fitted or top-dose-only effect; inactive = no such curve, though single readings can be large or run the other way; tested in HEK293T cells; also: % is scaled to controls: 0 for no effect and ±100 for the full control effect; nearly all actives have a fitted effect of over 45% in size; luciferase light after 4 h
Lassa entry inh – qHTS for Inhibitors of binding or entry into cells for Lassa Virus. 1.2% of 300,000 active. Potency, µM (highest dose often 37.9 µM), without a hit: at the highest dose activity change, negative = inhibition, actives largely listed as inhibitors. Lassa virus pseudotype entry inhibition, cell reporter; control for the full effect not named in the record; active means well fitted inhibition curve with a large enough effect; inconclusive means small, poorly fitted or top-dose-only effect, or effect the other way; inactive means flat fitted curve, though single readings scatter; tested in HEK293 cells; also: % is scaled to controls: 0 for no effect and ±100 for the full control effect; nearly all actives have a fitted effect of over 50% in size; luciferase read-out
RE007 growth inh – qHTS Assay for Inhibitors of the HIV-1 protein Vpr. S. pombe RE007 Vpr strain, BacTiter-Glo ATP luminescence, 24 h; control for the full effect not named in the record. Potency, µM (doses to about 92.2 µM), for inactives: at the top dose activity change, negative = less growth. 0.21% of 360,000 active; active = well fitted falling curve with a large enough effect; inconclusive = small, poorly fitted or top-dose-only effect; inactive = no such curve, though single readings can be large or run the other way;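 also: % is scaled to controls: 0 for no effect and ±100 for the full control effect; nearly all actives have a fitted effect of over 50% in size; the assay follows cell death caused by Vpr and the record does not say whether a fall means rescue or toxicity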
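Fission yeast strain RE007, carrying one chromosomally integrated HIV-1 vpr copy, was seeded at OD 0.01 in PMG+AL medium with 23 nL pinned compound. After 24 h at 30 °C and 99% humidity, viability was read by BacTiter-Glo luminescence.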
Cruzain Triton – qHTS Assay for Promiscuous and Specific Inhibitors of Cruzain (with detergent); Cruzipain (Trypanosoma cruzi), P25779; purified cruzain, Z-FR-AMC fluorescence, 0.01% Triton; Potency, µM, for inactives: max response, negative = inhibition, most hits filed as inhibitors; 0.43% of 200,000 active; AID 1478, 2009;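 also: plate controls were neutral wells for no effect and buffer without enzyme for full effect; nearly all actives have a fitted effect of over 40% in size; top concentration of the series not given in the record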
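Purified cruzain (1.5 nM final) was preincubated with compounds for 15 min at room temperature in 100 mM sodium acetate pH 5.5, 5 mM DTT, 0.01% Triton X-100. Reaction started with 2 uM Z-FR-AMC; AMC fluorescence change over 60 s gave activity.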
SARS PLpro yeast – qHTS of Yeast-based Assay for SARS-CoV PLP; Potency, µM (series often up to 32.9 µM), for the others: at the top dose activity, positive = growth rescue; S. cerevisiae expressing SARS-CoV PLpro, growth rescue; control for the full effect not named in the record; 0.19% of 330,000 active; active means well fitted rising curve with a large enough effect; inconclusive means small, poorly fitted or top-dose-only effect; inactive means no such curve, though single readings can be large or run the other way; also: 0% is about no effect; nearly all actives have a fitted effect of over 55% in size; growth read by luminescence after 48 h
MARV entry inh – qHTS for inhibitors of binding or entry into cells for Marburg Virus; Marburg virus pseudotyped entry inhibition, cell reporter; control for the full effect not named in the record; about a third of the inactives were read at about 46 µM; Potency, µM (series often up to 37.8 µM), for the others: at the top dose activity change, negative = inhibition, actives largely listed as inhibitors; 1.8% of 300,000 active; AID 540276, 2011; active = well fitted inhibition curve with a large enough effect; inconclusive = small, poorly fitted or top-dose-only effect, or effect the other way; inactive = flat fitted curve, though single readings scatter; tested in HEK293 cells; about a fifth of its hits are not listed in these tables; also: % is scaled to controls: 0 for no effect and ±100 for the full control effect; luciferase read-out
NS1 inh – qHTS Assay for Inhibitors of Influenza NS1 Protein Function. 0.4% of 270,000 active. Potency, µM (highest dose often 46.1 µM), without a hit: top-dose activity, positive = more growth. S. cerevisiae slowed by influenza A NS1, growth recovery by OD600; active means well fitted rising curve with a large enough effect; inconclusive means small, poorly fitted or top-dose-only effect; inactive means no such curve, though single readings can be large or run the other way; also: nearly all actives have a fitted effect of over 50% in size
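A cell-based growth assay was used: compounds that relieve NS1-induced slow growth of budding yeast raise OD600. Assay medium was yeast nitrogen base with ammonium sulphate and -URA supplement, pH 6.0, with 2% galactose.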
* = called active by the depositor; & = joins results of further samples; [ ] = remark or other dose. Unless noted, calls follow the shape of the dose curve; as a rule, active = well fitted curve in the direction sought with a large enough effect; inconclusive = small, poorly fitted or top-dose-only effect, or another doubt; inactive = no such curve, though single readings can be large; an effect the other way counts as inactive or inconclusive. Potency is read from the fitted curve at half-maximal effect.

CCOC(=O)Cc1cc(=O)n2[nH]c(-c3ccccc3)cc2n1 was read as Cruzain noTriton -0.5%, Lassa entry inh 1.5%, RE007 growth inh 2.0%, Cruzain Triton -2.1%, SARS PLpro yeast 11.4%, MARV entry inh 1.5% and NS1 inh 21.3%.
Screening C=CCNc1nc(Nc2ccc(OC)cc2)nc(OC)n1 returned Cruzain noTriton 5.9%, StopGo reporter 13.5%, Lassa entry inh -1.6%, RE007 growth inh -4.5%, Cruzain Triton 0.3%, MARV entry inh -1.5% and NS1 inh -15.9%.
Screening COC(=O)CC1COc2ccccc2N1C(=O)c1ccc(Cl)cc1 (stereo unspecified) returned Cruzain noTriton 6.7%, StopGo reporter -20.9%, Lassa entry inh -4.3%, RE007 growth inh -7.0%, Cruzain Triton 9.2%, SARS PLpro yeast -2.6%, MARV entry inh -22.4% and NS1 inh 4.3%.
CN(C)S(=O)(=O)c1ccc(Oc2ccccc2)cc1 was read as Cruzain noTriton -1.1%, StopGo reporter -2.5%, Lassa entry inh -1.9%, RE007 growth inh 8.7%, Cruzain Triton -1.8%, SARS PLpro yeast -6.0%, MARV entry inh -4.5% and NS1 inh -12.0%.
Screening Cc1ccc(C)c(N2CCN(c3nc4ccccc4n4nnnc34)CC2)c1 returned Cruzain noTriton inconclusive, StopGo reporter 27.2%, Lassa entry inh 21.6%[46.1 µM], Cruzain Triton -0.8% and MARV entry inh inconclusive.
For O=C(c1c(F)cccc1Cl)N1CCN(S(=O)(=O)c2ccc3c(c2)OCCCO3)CC1 the results were StopGo reporter inconclusive, Lassa entry inh -23.7%, RE007 growth inh 0.1%, SARS PLpro yeast 7.1%, MARV entry inh 1.2% and NS1 inh -32.1%.
Screening COc1ccc(NC(=O)c2ccco2)c(OC)c1 returned Cruzain noTriton 1.8%, StopGo reporter 29.5%, Lassa entry inh inconclusive, RE007 growth inh -10.1%, Cruzain Triton 0.9%, SARS PLpro yeast 1.6%, MARV entry inh 14.1% and NS1 inh -17.3%.
For CN(N=O)c1ccc(O)c(O)c1 the results were Cruzain noTriton 21.4%, Lassa entry inh inconclusive, Cruzain Triton -13.8%, MARV entry inh 17.7µM* and NS1 inh 5.01µM*.
`COc1ccc(C(=O)NC(C)CCc2ccccc2)cc1` (stereo unspecified) gave StopGo reporter 41.0%[activator], Lassa entry inh -11.7%, RE007 growth inh 15.7%, SARS PLpro yeast -0.7%, MARV entry inh 2.5% and NS1 inh -10.5%.
For N#Cc1cn(-c2ccccc2)nc1C(=O)c1ccccc1 the results were Cruzain noTriton -6.7%, StopGo reporter -2.8%, Lassa entry inh -8.9%, RE007 growth inh 6.9%, Cruzain Triton -3.0%, SARS PLpro yeast 0.5%, MARV entry inh 11.3% and NS1 inh 6.1%.
`COc1ccccc1CCc1nnc(CCC(=O)NC(C)Cc2ccsc2)o1` (stereo unspecified) gave StopGo reporter 2.7%, RE007 growth inh 13.4%, SARS PLpro yeast 0.4%, MARV entry inh inconclusive and NS1 inh -3.2%.
For Nc1nc2[nH]c(=O)cnc2c(=O)[nH]1 the results were Cruzain noTriton -6.3%, Lassa entry inh inconclusive, Cruzain Triton 1.3%, MARV entry inh inconclusive and NS1 inh 0.0%.
CCOc1cccc(-c2nnc3sc(COc4ccc(Cl)cc4)nn23)c1 was read as Cruzain noTriton inconclusive, StopGo reporter -16.9%, Lassa entry inh -17.8%, RE007 growth inh -1.9%, Cruzain Triton 3.6%, SARS PLpro yeast 4.3%, MARV entry inh 2.0% and NS1 inh -1.4%.
CSc1nnc(-c2ccccc2N=Cc2c(C)[nH]n(-c3ccccc3)c2=O)c(=O)[nH]1 was read as Cruzain noTriton 13.7%, StopGo reporter -0.8%, Lassa entry inh inconclusive, RE007 growth inh -25.6%, Cruzain Triton 1.5%, SARS PLpro yeast 1.2%, MARV entry inh -1.9% and NS1 inh 2.4%.
`Cc1ccc2nc(NC(=O)c3ccc(Cn4cc(Cl)cn4)o3)sc2c1` gave Cruzain noTriton -19.6%, StopGo reporter -1.7%, Lassa entry inh 27.1%, RE007 growth inh -2.1%, Cruzain Triton -6.7%, SARS PLpro yeast 7.2%, MARV entry inh -2.9% and NS1 inh 5.3%.
`Cc1ccc(-c2cc(C(=O)N/N=C/c3ccccc3)n[nH]2)o1` gave StopGo reporter 38.5%[activator], Lassa entry inh -20.4%[46.1 µM], RE007 growth inh -7.4%, SARS PLpro yeast 3.5%, MARV entry inh -2.4%[46.1 µM] and NS1 inh 8.1%.
Screening N/C(=N\OC(=O)c1ccc(Cl)c([N+](=O)[O-])c1)c1ccccc1 returned StopGo reporter 13.4%, RE007 growth inh -19.3%, SARS PLpro yeast -1.7% and NS1 inh 1.7%.
O=C(N/N=C/c1ccc[nH]1)c1ccccc1[N+](=O)[O-] was read as Cruzain noTriton -10.0%, StopGo reporter 1.0%, Lassa entry inh inconclusive, RE007 growth inh -6.0%, Cruzain Triton -3.8%, SARS PLpro yeast 7.5%, MARV entry inh 27.1% and NS1 inh 5.0%.
`Cc1nc2ccc(S(=O)(=O)NC(C(=O)N3CCCC3)C(C)C)cc2s1` (stereo unspecified) gave Cruzain noTriton -10.6%, StopGo reporter -3.2%, RE007 growth inh -0.2%, Cruzain Triton -3.5%, SARS PLpro yeast 4.7% and NS1 inh 4.9%.
CCCN(Cc1cccs1)C(=O)Nc1cc(Cl)ccc1C was read as Cruzain noTriton 4.2%, StopGo reporter -14.3%, Lassa entry inh 0.9%[46.1 µM], Cruzain Triton -2.9% and MARV entry inh -3.9%[46.1 µM].
For COc1ccc(NC(=O)CC2Oc3ccccc3NC2=O)cc1 (stereo unspecified) the results were Cruzain noTriton -8.3%, StopGo reporter 10.6%, RE007 growth inh 15.1%, Cruzain Triton -8.8%, SARS PLpro yeast 5.6% and NS1 inh 5.5%.
Cc1ccc2c(=O)cc(C(=O)Nc3ccc(S(=O)(=O)N(C)c4ccccc4)cc3)oc2c1C was read as Cruzain noTriton -2.3%, StopGo reporter -12.0%, Lassa entry inh 4.0%[46.1 µM], Cruzain Triton 0.4% and MARV entry inh -0.7%[46.1 µM].
For NC1=NC(=O)/C(=C/c2cc(Br)c(O)c(Br)c2)S1 the results were StopGo reporter -2.3%, RE007 growth inh 9.5%, SARS PLpro yeast 4.2% and NS1 inh 10.0%.
Screening CC1CCN(CCNC(=O)C2CCCN(S(=O)(=O)c3cccc4nonc34)C2)CC1 (stereo unspecified) returned Cruzain noTriton -6.1%, StopGo reporter inconclusive, Lassa entry inh 19.1%, RE007 growth inh -13.0%, Cruzain Triton -6.1%, SARS PLpro yeast 14.9%, MARV entry inh -1.0%&-1.0%[46.1 µM] and NS1 inh 0.3%.
`O=C(Nc1cccc([N+](=O)[O-])c1)N1CCc2ccccc2C1` gave StopGo reporter 11.1%, Lassa entry inh -1.5%[46.1 µM], RE007 growth inh -12.8%, SARS PLpro yeast -8.0%, MARV entry inh inconclusive and NS1 inh -42.2%.
`CCOc1cc(/C=C2\NC(=S)N(c3c(C)n(C)n(-c4ccccc4)c3=O)C2=O)ccc1O` gave Cruzain noTriton -8.3%, StopGo reporter 0.0%, Lassa entry inh -3.0%, RE007 growth inh 0.2%, Cruzain Triton -9.4%, SARS PLpro yeast -12.9%, MARV entry inh -7.9% and NS1 inh 14.6%.
`CC(C)N(O)C(=O)NC(C)(C)C` gave Cruzain noTriton -1.1%, StopGo reporter -3.7%, Lassa entry inh -2.2%, RE007 growth inh -10.2%, Cruzain Triton 3.1%, SARS PLpro yeast 3.4%, MARV entry inh -2.5% and NS1 inh 6.4%.
`CCN(CC)CCCNc1nc(N)c([N+](=O)[O-])c(N2CCCCCC2)n1` gave StopGo reporter -15.3%, Lassa entry inh 1.3%[46.1 µM], RE007 growth inh 3.6%, SARS PLpro yeast 11.6%, MARV entry inh inconclusive and NS1 inh -4.5%.
For Nc1ccc(NC2C[C@@H](C(=O)O)NC2=O)cc1 (stereo partly specified) the results were StopGo reporter 3.6%, Lassa entry inh 11.9%[46.1 µM], RE007 growth inh 0.8%, SARS PLpro yeast -0.4% and MARV entry inh 24.3%[46.1 µM].
For CC(=O)NC1=C(NC2CCS(=O)(=O)C2)C(=O)c2ccccc2C1=O (stereo unspecified) the results were Cruzain noTriton 4.5%, StopGo reporter -39.4%, Lassa entry inh -16.3%, RE007 growth inh -23.5%, Cruzain Triton -8.1%, SARS PLpro yeast -59.8%, MARV entry inh inconclusive and NS1 inh -37.3%.
`CCOC(=O)/C(C#N)=C/c1cn(CCC(=O)O)nc1-c1ccccc1` gave Cruzain noTriton -1.4%, StopGo reporter -14.1%, Lassa entry inh 4.1%, RE007 growth inh 14.0%, Cruzain Triton -8.0%, SARS PLpro yeast 13.9%, MARV entry inh 9.6% and NS1 inh 1.7%.
For Cc1onc(-c2ccccc2)c1C(=O)Nc1ncc([N+](=O)[O-])s1 the results were StopGo reporter inconclusive, Lassa entry inh inconclusive, RE007 growth inh -9.3%, SARS PLpro yeast -13.5%, MARV entry inh inconclusive and NS1 inh -85.0%.
COc1ccc(S(=O)(=O)N2CCC(NC(=O)C(Cc3cccc(OC)c3OC)NC(C)=O)CC2)cc1 (stereo unspecified) was read as StopGo reporter -11.5%, Lassa entry inh -29.7%[46.1 µM], RE007 growth inh -1.8%, SARS PLpro yeast 1.7%, MARV entry inh 19.0%[46.1 µM] and NS1 inh 6.3%.
For Cc1cc(C)nc(SCc2ccc(C(=O)N/N=C/C3CCCCC3)cc2)n1 the results were Cruzain noTriton inconclusive, StopGo reporter -17.1%, Lassa entry inh -1.5%, RE007 growth inh 2.9%, Cruzain Triton -2.5%, SARS PLpro yeast 0.0%, MARV entry inh 19.3% and NS1 inh 18.6%.
For CN1CCN(C(c2ccc(F)cc2)c2nnnn2Cc2cccs2)CC1 (stereo unspecified) the results were Cruzain noTriton -8.8%, StopGo reporter -6.3%, Lassa entry inh 22.3%, RE007 growth inh -14.3%, Cruzain Triton -0.5%, SARS PLpro yeast -8.2%, MARV entry inh inconclusive and NS1 inh -7.9%.
`O=C(NC(=S)NNC(=O)c1cccs1)c1ccccc1` gave StopGo reporter 8.5%, RE007 growth inh -19.9%, SARS PLpro yeast -3.6% and NS1 inh -98.7%.
c1ccc(C(c2ccccc2)N2CCN(C(c3ccccn3)c3nnnn3C3CCCC3)CC2)cc1 (stereo unspecified) was read as StopGo reporter -9.4%, Lassa entry inh -3.4%, RE007 growth inh -2.2%, SARS PLpro yeast -0.1%, MARV entry inh -14.1% and NS1 inh 2.2%.
